Screening data deposited in PubChem by several laboratories.
HIV Env fusion: HIV envelope-mediated fusion inhibition; HeLa-JRFL Env/CEM21 cell fusion, luciferase; inhibition, % at 12.3 µM; 360,000 compounds, 1.1% hits; AID 651610;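 active = mean replicate inhibition score of at least 50 and every replicate individually at or above 50; inconclusive = only one of the two criteria met; inactive = mean below 50 and not all replicates reaching 50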;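 also: 0% = plate neutral controls and 100% = maraviroc near 300 nM; one replicate is shown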
eIF4H FP inh: inhibitors of RNA binding by human eIF4H; Q15056; eIF4H fluorescence polarization binding assay; inhibition, % at 35 µM; 290,000 compounds, 0.94% hits; AID 2012;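 active = 50% or more with normal probe brightness, or confirmed in later tests; inconclusive = above 50% with abnormal brightness, or retests that disagree; inactive = below 50% or failed in later tests; about a fifth of its hits are not listed in these tables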;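 also: calls also rest on retests at 20 µM and on dose response follow-up; 0% = protein and probe with vehicle and 100% = probe without protein; strong numbers were not always called active; many hits fall short of the cut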
CSC inhib: blocks cancer stem cells. cancer stem cell-like cells viability, luminescence. inhibition, % at 7.5 µM. 300,000 compounds, 1.1% hits. AID 2717;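 active = mean at 75% or more and at least half the replicates too; inconclusive = mean and replicates disagree; tested in HMLE shEcad cells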;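 also: 0% = median of negative and 100% = median of positive control wells; the first replicate is given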
PABP FP inh: blocks human PABP binding to poly(A) RNA; 290,000 compounds, 1% hits; P11940; inhibition, % at 35 µM; fluorescence polarization; AID 2014;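 active = 50% or more with normal probe brightness, or confirmed in later tests; inconclusive = above 50% with abnormal brightness, or retests that disagree; inactive = below 50% or failed in later tests; about a fifth of its hits are not listed in these tables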;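 also: calls also rest on retests at 20 µM and on dose response follow-up; controls were probe without protein and protein plus probe with vehicle; some compounds called inactive have numbers as strong as hits; many hits fall short of the cut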
Target sequence (P11940 whole entry, looked up): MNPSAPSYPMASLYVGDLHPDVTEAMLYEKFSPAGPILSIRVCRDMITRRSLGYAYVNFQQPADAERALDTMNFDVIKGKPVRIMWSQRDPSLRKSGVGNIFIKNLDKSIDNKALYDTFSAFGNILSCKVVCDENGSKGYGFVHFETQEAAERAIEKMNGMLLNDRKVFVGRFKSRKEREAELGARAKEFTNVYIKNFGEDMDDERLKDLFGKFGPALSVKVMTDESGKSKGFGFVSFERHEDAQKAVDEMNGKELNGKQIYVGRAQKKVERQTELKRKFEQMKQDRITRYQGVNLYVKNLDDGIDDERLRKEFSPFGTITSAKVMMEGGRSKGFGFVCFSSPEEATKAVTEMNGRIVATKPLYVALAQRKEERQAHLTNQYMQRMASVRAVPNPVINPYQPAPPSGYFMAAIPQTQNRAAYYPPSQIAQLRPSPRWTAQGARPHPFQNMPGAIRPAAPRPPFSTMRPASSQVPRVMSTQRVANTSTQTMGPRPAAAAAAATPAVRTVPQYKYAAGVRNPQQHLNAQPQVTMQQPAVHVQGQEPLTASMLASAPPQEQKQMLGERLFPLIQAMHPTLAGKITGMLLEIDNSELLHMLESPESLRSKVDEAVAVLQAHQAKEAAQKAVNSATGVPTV
Rce1 inhib: yeast Ras-converting enzyme inhibition | Q03530 | yeast membranes, quenched prenylated peptide cleavage fluorescence | calls only | 290,000 compounds, 0.27% hits;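 active = fall in fluorescence gain of 50% or more versus controls, with final raw signal at or below 3038400; inconclusive = same 50% fall but final raw signal above 3038400; inactive = fall in fluorescence gain under 50%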;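 also: plate controls were neutral control wells for no effect and wells lacking membranes for full effect; tested at 10 µM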
MT1-MMP act inh: MT1-MMP (human) activation inhibition; P50281; HT1080 RFP-PRO-GFP cells, GFP/RFP ratio fluorescence, overnight; percent of plate control window, DMSO zero; GFP/RFP ratio change, % at 20 µM; 360,000 compounds, 0.061% hits;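 active = GFP/RFP ratio change of at least 30% with cell ATP level not reduced by more than half and red fluorescence within 50% of control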; also: strong numbers were not always called active
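Compound: 20 µM single dose, 1% DMSO / System: HT1080 RFP-PRO-GFP cells / Controls: DMSO and RFP-L50D-GFP cell wells / Read-out basis: GFP/RFP fluorescence ratio / Schedule: overnight compound exposure at 37 °C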
Yeast UUG start: yeast start codon fidelity modulation; 350,000 compounds, 0.13% hits; S. cerevisiae UUG-firefly luciferase reporter, luminescence/redox ratio; activity score, % at 18.7 µM;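 active = replicate mean at a twofold rise or more, about +100% in these data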;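 also: firefly luciferase made from a UUG start codon reports start codon fidelity; reporter light over untreated wells divided by growth signal over untreated wells; some hits fall short of that in this replicate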
MT1-MMP act inh RFP: recorded beside MT1-MMP act inh, whose call it bears; RFP signal change, %; measured here: RFP expression control read;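 0 = vehicle wells; hits needed this value within 50% of zero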
Active calls of the source: *; i = inactive; u = inconclusive; x = not tested or not shown; & = joins results of further samples; [ ] = another dose, or the depositor's remark. An excerpt; count on the stated rates, not on these rows.

SMILES	HIV Env fusion	eIF4H FP inh	CSC inhib	PABP FP inh	Rce1 inhib	MT1-MMP act inh	MT1-MMP act inh RFP	Yeast UUG start
COc1ccc2c(c1)cc(C)c1nnc(SCC(=O)N(C)c3nc(-c4ccccc4)cs3)n12	0	1	18	-2	i	5	-2	-23
O=C(NCc1cccnc1)[C@@H]1CC=C[C@@H]2CCN(Cc3ccccc3)C(=O)[C@@H]21	19	x	x	x	i	1	1	-13
c1ccc(C2CC(c3ccccc3)n3ncnc3N2)cc1 (stereo not given)	x	-5	x	-3	i	9	3	-23
CC(C)n1c(SCC(=O)Nc2nncs2)nnc1C1CC1	12	-5	6	5	i	-1	4	-12
CCCCNC(=O)CN1C(=O)c2cccc(N)c2C1=O	0	85*	x	86*	i	-2	3	x
O=C(O)CCn1cc(/C=C2\NC(=S)N(c3ccccc3)C2=O)c(-c2ccc(Br)cc2)n1	5	2	-4	-7	i	-8	-3	x
CN(C)CCOC(=O)CCc1ccccc1	x	-10	-4	-8	i	6	10	-17
CCOC(=O)C1(CCOc2ccccc2)CCN(Cc2ccc(C(=O)OC)cc2)CC1	23	-7	-14	-6	i	5	-12	10
Cc1cccc(Nc2c([N+](=O)[O-])ccc3nonc23)c1C	-2	47	x	2	i	1	0	-15
N/C(=N\S(=O)(=O)c1cc(C(F)(F)F)cc(C(F)(F)F)c1)c1ccncc1	0	-3	5	-22	i	-3	-5	-6
Cc1c(NC(=S)NC(=O)CSc2ccc(Cl)cc2)cccc1C(=O)O	-1	-4	1	2	i	-2	1	-20
COC(=O)C1SCC2C(=O)N(Cc3ccccc3)CC(=O)N21 (stereo not given)	6	-3	-11	17	i	1	3	x
CCOc1ccc2ncc(S(=O)(=O)c3ccccc3)c(N3CCN(c4ccc(OC)cc4)CC3)c2c1	-1	8	-12	-2	i	0	-1	x
CCN1CCN(CCNC(=O)CCc2c(C)c3c(C)nn(-c4ccccc4)c3n(C)c2=O)CC1	x	7	-8	9	i	-3	1	-15
O=c1cc(CSc2ccc(Cl)cc2)nc(N2CCCCC2)[nH]1	-55	9	9	4	i	-2	-4	-7
Cc1ccn(CC(=O)N2CCCC(N3CCN(c4ccccc4F)CC3)C2)n1 (stereo not given)	3	-1	x	-4	i	2	2	-23
CCOC(=O)[C@@H]1[C@H]2COc3cc(OC)ccc3[C@H]2N2C(=O)N(c3ccc(C)cc3)C(=O)[C@@]12C	-30	-3	-11	-3	i	1	-2	-6
COc1ccc(C(=O)/C=C/c2ccccc2F)c(OC(=O)c2ccc([N+](=O)[O-])cc2)c1	-182	-14	21	-5	i	7	-10	-13
NC(=O)CCN1CCCCC1	10	6	-16	4	i	-4	2	-14
C#CC1(O)CCCC2C3CCC4CC(OC(C)=O)CCC4(C)C3C(=O)CC21C (stereo not given)	19	x	x	x	x	1	-4	10
CC(=O)N1CCC2(CC1)CC(=O)c1cc(OCC(=O)NCc3ccco3)ccc1O2	-44	4	-5	4	i	-2	4	0
C=CCn1c(CNc2ccc(C)cc2)nnc1SCC(=O)N/N=C/c1ccc(O)cc1O	x	8	106*	-3	i	-1	0	-25
O=C(NC(=S)Nc1ccccn1)c1ccc([N+](=O)[O-])cc1	-51	0	-8	4	i	3	-1	-8
O=[N+]([O-])c1ccc(N2CCN(c3cccc(Cl)c3)CC2)cn1	-17	0	x	4	i	5	-10	-13
CCN(CC)C(=S)Nc1ccc(Cl)c(Cl)c1	6	-4	-42	-10	i	-11	1	-24

Shown with values under each structure: part of the list above.
Each structure is followed by: HIV Env fusion, eIF4H FP inh, CSC inhib, PABP FP inh, Rce1 inhib, MT1-MMP act inh, MT1-MMP act inh RFP, Yeast UUG start
COc1ccc(C(=O)/C=C/c2ccccc2F)c(OC(=O)c2ccc([N+](=O)[O-])cc2)c1
→ -182, -14, 21, -5, i, 7, -10, -13
NC(=O)CCN1CCCCC1
→ 10, 6, -16, 4, i, -4, 2, -14

4 of the compounds above, as labelled records:
O=c1cc(CSc2ccc(Cl)cc2)nc(N2CCCCC2)[nH]1
  HIV Env fusion = -55	eIF4H FP inh = 9	CSC inhib = 9	PABP FP inh = 4	Rce1 inhib = i	MT1-MMP act inh = -2	MT1-MMP act inh RFP = -4	Yeast UUG start = -7

CCOc1ccc2ncc(S(=O)(=O)c3ccccc3)c(N3CCN(c4ccc(OC)cc4)CC3)c2c1
  HIV Env fusion = -1	eIF4H FP inh = 8	CSC inhib = -12	PABP FP inh = -2	Rce1 inhib = i	MT1-MMP act inh = 0	MT1-MMP act inh RFP = -1	Yeast UUG start = x

CN(C)CCOC(=O)CCc1ccccc1
  HIV Env fusion = x	eIF4H FP inh = -10	CSC inhib = -4	PABP FP inh = -8	Rce1 inhib = i	MT1-MMP act inh = 6	MT1-MMP act inh RFP = 10	Yeast UUG start = -17

O=C(O)CCn1cc(/C=C2\NC(=S)N(c3ccccc3)C2=O)c(-c2ccc(Br)cc2)n1
  HIV Env fusion = 5	eIF4H FP inh = 2	CSC inhib = -4	PABP FP inh = -7	Rce1 inhib = i	MT1-MMP act inh = -8	MT1-MMP act inh RFP = -3	Yeast UUG start = x

Going on with the list:
SMILES	HIV Env fusion	eIF4H FP inh	CSC inhib	PABP FP inh	Rce1 inhib	MT1-MMP act inh	MT1-MMP act inh RFP	Yeast UUG start
CS(=O)(=O)N(CC(=O)N1CCN(c2ccccc2)CC1)c1ccccc1Cl	x	x	-10	x	i	3	-1	-1
CC(C)C(=O)Nc1cccc(C(=O)Nc2nncs2)c1	-52	4	-11	-6	i	1	9	6
CCNC(=O)CC1C(=O)N(c2ccccc2)C(=O)N1CCC(C)C (stereo not given)	x	0	-6	10	i	-3	0	-16
Cc1ccc(Oc2nccc(-c3ccc(Cl)cc3)n2)cc1	x	8	11	-6	i	-2	-3	x
CC(=O)Nc1cccc(-c2ccnc3c2CC(C(=O)Nc2ccc(F)c(Cl)c2)O3)c1 (stereo not given)	4	x	x	x	x	6	-14	-14
Cc1ccc(O)c(NC(=O)c2cc(C)no2)c1	2	-11	20	-3	i	10	6	-9
CCOc1ccc(S(=O)(=O)n2nc(C)cc2C)c2ccccc12	x	-7	-4	-16	i	1	6	-11
CCOC(=O)c1[nH]c(C=O)c(C(=O)OCC)c1C	-364	-7	-2	-2	x	-4	-5	x
C=CCNC(=O)/C(=C\c1ccc([N+](=O)[O-])cc1)NC(C)=O	x	-6	-7	-8	i	1	2	0
CCCn1c(C)cc(C(=O)COc2ccc(S(=O)(=O)N(CC)CC)cc2[N+](=O)[O-])c1C	33	10	7	12	i	-4	-7	-15
O=C(CC1SC(N2CCCC2)=NC1=O)Nc1ccc(C(=O)NCc2ccccc2F)cc1 (stereo not given)	18	x	x	x	x	1	6	-8
CC1(C(=O)NS(=O)(=O)c2cccc(Cl)c2)CCN1C(=O)CCc1ccccc1 (stereo not given)	19	x	x	x	x	2	2	14
N#Cc1c(SCc2c(Cl)cccc2Cl)nc(N)[nH]c1=S	-13	x	28	x	x	2	0	-3
Cc1ccccc1-c1cnc2c(c1)C(=O)N([C@H](C)CO)C[C@@H](C)[C@H](CN(C)C(=O)c1ccncc1)O2	-8&0[16.7 µM]	x	x	x	x	1	3	-12&3&-1
Cn1c(-c2ncc(F)cc2F)cc2onc(-c3c(F)cccc3Cl)c2c1=O	-56	x	-3	x	x	-3	-7	-10
Cc1nnc(NC(=O)CCCN2C(=O)c3ccccc3C2=O)s1	-28	4	x	0	i	5	0	-27
CCN(CC)S(=O)(=O)c1ccc(N=Nc2c(C)[nH]n(C(N)=S)c2=O)cc1	-113	6	-4	3	i	12	-11	-14
O=C(Cn1nnc(-c2ccc3c(c2)OCO3)n1)NCc1ccccc1	0	3	2	-1	i	0	0	x
CS(=O)(=O)N(CC(=O)NCc1ccco1)c1ccc2c(c1)OCO2	-16	24	-17	9	i	3	6	-26
CCCN1CCC(=O)N([C@H](CSc2ccc(Br)cc2)c2ccccc2)CC1	-53	-2	17	-1	i	2	0	-9
O=C(CSc1ccccc1)Nc1nnc(COc2ccc(Cl)cc2)s1	23	15	7	9	i	3	2	x
COC(=O)c1ccccc1CON1C(=O)C(C)(C)N(OCc2ccccc2C(=O)OC)C(=O)C1(C)C	x	-3	2	-11	i	-9	-3	4
COc1ccc2[nH]c3c(c2c1)CCNC3=O	u	x	-23	x	i	-11	-5	-13
CNC(=S)N1CCN(c2nc(-c3ccc(F)cc3)cs2)CC1	1	-3	5	-4	i	8	-5	-17
Cc1ccc(N=c2c([N+](=O)[O-])nn(-c3ccc4c(c3)OCCO4)n2O)cc1F	24	3	18	-2	x	2	0	x
New compounds follow
SMILES	HIV Env fusion	eIF4H FP inh	CSC inhib	PABP FP inh	Rce1 inhib	MT1-MMP act inh	MT1-MMP act inh RFP	Yeast UUG start
O=C(c1cc2ncc(CCCl)cn2n1)N1CCCCCC1	2	3	x	-1	i	7	13	x
O=C(Nc1cccc(NC(=O)c2ccco2)c1)c1ccc([N+](=O)[O-])cc1	-20	-7	-15	-2	i	2	2	x
CCOc1ccc(NC(=O)CN(C)C(=O)C2CC(=O)N(c3ccc4c(c3)OCCO4)C2)cc1OCC (stereo not given)	17	x	-6	x	i	4	1	0
O=S(=O)(c1ccc(SCCO)nc1)N1CCCC1	-39	-5	-8	4	i	2	2	3
CCC(=O)OCCn1c(Br)nc2c1c(=O)[nH]c(=O)n2C	4	10	9	-4	i	-2	-4	-12
O=C(COc1ccccc1[N+](=O)[O-])N(C1CCCCC1)C1CCS(=O)(=O)C1 (stereo not given)	-5	x	-17	x	i	-3	-1	-3
CC(=O)c1cc2c(cc1NC(=O)CCCC(=O)O)OCO2	x	22	x	-2	i	0	6	-3
C=CCNC(=O)CSc1nnc(-c2ccc(S(=O)(=O)N3CCCC3)cc2)n1C	-21	0	26	4	i	2	2	-13
O=C(Nc1nccs1)c1ccc([N+](=O)[O-])cc1	-12	2	6	7	i	1	0	-17
Cc1cc(=O)[nH]c(N/N=C/c2cn(CCC#N)nc2-c2ccccc2)n1	8	-17	0	-6	i	1	3	x
S=C1NC2(CCCCCC2)N=C1c1ccccc1	-6	-4	-9	-6	i	2	-1	-28
CCCCNC(=O)O[C@@H]1C[C@H]2CCCC(=O)N3CC[C@@H](C1)[C@@H]23	-3	-1	-14	12	i	3	2	-7
CCC(=O)N1CCN(c2nc(-c3ccccc3)c3c(c2C#N)CCCC3)CC1	x	4	x	1	i	-21	-10	-7
COc1ccc2[nH]c3c(c2c1)CCN1C(=O)C(CC(=O)NC(C)(C)C)C[C@H](C(=O)N2CCOCC2)[C@@]31CCC1CCCC1 (stereo not given in full)	-57	x	x	x	x	-10	-10	-8
CC(=O)CC1=NC(C)(C)Cc2ccccc21	4	-5	-7	-4	i	-1	2	x
Cn1c(N2CCN(C(c3ccccc3)c3ccccc3)CC2)nc2ccccc21	6	-12	-7	18	i	7	-12	4
COc1ccc(N(C(=O)c2ccco2)S(=O)(=O)c2ccccc2)cc1	-44	4	-13	5	x	-3	-1	-20
C[C@H](CO)N1C[C@H](C)[C@@H](CN(C)S(=O)(=O)c2cn(C)cn2)Oc2ccc(NC(=O)NC3CCCCC3)cc2C1=O	12	x	-16	x	x	0	8	7&13
CCOC(=O)c1c(C)[nH]c(C(=O)CC(=O)OC)c1C	-10	2	6	-5	i	-3	-3	1
CCOC(=O)Cc1nnc(NC(=O)C23CC4CC(CC(C4)C2)C3)s1	13	-3	8	3	i	0	-4	x
